esBAF inh: Bmi1 luciferase reporter increase in mESCs, primary screen, esBAF inhibitor project, mouse ES cells, Bmi1 luciferase knock-in, single point. reporter increase, % at 12.5 µM. 350,000 tested, 2% active. 24 h; 100% = twice the neutral-well signal. AID 602393, 2012; in the data active = activation above about 40%;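 note: 0% = median of the plate's neutral control wells and 100% = double that signal; a rise in the Bmi1 reporter signal indicates esBAF inhibition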
Statin myotox sup: suppressors of statin myotoxicity in C2C12 myotubes, primary screen, cell-based, single point, plate reader | C2C12 myotubes + simvastatin, ATP luminescence, 48 h; scaled: DMSO 0, geranylgeraniol control 100 | rescue of ATP level, % at 7.49 µM | 330,000 tested, 0.78% active;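 active = mean ATP rescue above about 67%, or every replicate alone reaching that limit, limit read from the data, passing the limit was not always enough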;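 note: myotubes were challenged with 10 µM simvastatin during compound exposure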
miR122 inh: miR-122 Renilla sensor signal increase in Huh7, primary screen, miR-122 inhibitor project, cell-based, single point, plate reader; Huh7 miR-122 Renilla luciferase sensor, 48 h; neutral wells = 0, positive control = 100; AID 602342, 2012; activation (reporter increase), % at 12.5 µM; 340,000 tested, 0.3% active;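 active = mean replicate activation score at least 90 and every replicate individually at or above 90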;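 note: higher luciferase means less miR-122 activity so hits act as miR-122 inhibitors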
SIRT5 block: SIRT5 desuccinylase inhibitors, primary screen, biochemical, fluorescence imaging, single point, set 5; 330,000 tested, 1.1% active; Purified SirT5, succinyl-peptide AMC, trypsin-coupled fluorescence; AID 652115, 2013; inhibition, % at 15 µM; in the data active = inhibition above about 15%
Target sequence (Q9NXA8 whole entry, looked up): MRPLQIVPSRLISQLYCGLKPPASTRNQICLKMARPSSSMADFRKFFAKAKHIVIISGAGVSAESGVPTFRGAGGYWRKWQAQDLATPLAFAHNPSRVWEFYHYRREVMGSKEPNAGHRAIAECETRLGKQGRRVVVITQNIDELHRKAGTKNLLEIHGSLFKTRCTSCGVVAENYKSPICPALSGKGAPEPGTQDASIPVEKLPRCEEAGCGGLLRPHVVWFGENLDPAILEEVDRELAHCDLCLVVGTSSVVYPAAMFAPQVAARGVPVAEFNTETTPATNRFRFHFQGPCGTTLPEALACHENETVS
Cneo AK release: Cryptococcus neoformans cell lysis inducers, primary screen, AK release luminescence, single concentration | 360,000 tested, 0.2% active | lysis activity, % at 15 µM | AID 651654, 2012 | C. neoformans lysis, adenylate kinase release luminescence, 4 h; normalised: neutral wells 0, clomiphene wells 100;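 active = mean lysis activity across replicates of at least 80%, whatever share of replicates individually reach that level; inactive = mean lysis activity below 80%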
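Material: C. neoformans cells; Schedule: 4 h static compound exposure, 37 °C, read 1 h post-reagent; Measured by: adenylate kinase release luminescence; Read-out: signal increase indicating cell lysis; Controls: Clomiphene as positive lysis control.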
ERp5 inh: inhibitors of ERp5-driven insulin aggregation, primary screen, biochemical, turbidity, absorbance 650 nm, single point | Protein disulfide-isomerase A6 (Homo sapiens), Q15084 | 90 min | inhibition, % at 9.99 µM | 350,000 tested, 0.05% active;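 active = mean replicate inhibition above about 25%, with every replicate also reaching it, limit read from the data, passing the limit was not always enough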
Target sequence (Q15084 whole entry, looked up): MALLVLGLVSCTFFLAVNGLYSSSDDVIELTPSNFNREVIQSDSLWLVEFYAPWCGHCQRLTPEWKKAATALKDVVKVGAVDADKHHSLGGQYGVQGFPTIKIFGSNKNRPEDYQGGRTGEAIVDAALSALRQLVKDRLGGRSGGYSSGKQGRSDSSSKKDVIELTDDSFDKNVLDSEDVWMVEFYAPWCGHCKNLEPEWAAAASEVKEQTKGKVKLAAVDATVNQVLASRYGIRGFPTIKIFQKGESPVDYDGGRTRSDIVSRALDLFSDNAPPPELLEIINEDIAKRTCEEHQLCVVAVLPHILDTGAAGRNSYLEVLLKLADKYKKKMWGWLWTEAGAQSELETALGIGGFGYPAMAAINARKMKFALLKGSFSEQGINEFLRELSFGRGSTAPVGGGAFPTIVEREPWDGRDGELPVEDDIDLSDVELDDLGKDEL
An asterisk follows results filed as active; x = no result given; & = joins results of further samples; [ ] = dose if it differs, or a comment. Not all compounds are listed; rates above refer to the full screens.

(1) Cc1nn(-c2ccccc2)c2[nH]c(=O)c(CNCCN3CCOCC3)cc12
(2) O=C(Nc1nc2ccc(S(=O)(=O)N3CCCC3)cc2s1)c1ccccn1
(3) COc1ccc(-c2nnc(-c3ccccc3O)o2)cc1
(4) CCn1c(Cc2ccccc2)nnc1SCC(=O)Nc1ccccc1
(5) CC(C)(C)c1ccc(C(O)CCCN2CCC(C(O)(c3ccccc3)c3ccccc3)CC2)cc1 (stereo not given)
(6) Cc1cc2occ(CC(=O)NNC(=O)c3ccccc3)c2cc1C
(7) C=CCn1c(CNC(=O)c2ccccc2F)nnc1SCC(=O)N1CCOCC1
(8) O=C(/C=C/c1cn(-c2ccccc2)nc1-c1cccs1)NCCN1CCOCC1
assay / entry	1	2	3	4	5	6	7	8
esBAF inh	-6	x	4	-5	-10	-1	-5	2
Statin myotox sup	5	x	-3	-3	-19	1	0	-16
miR122 inh	-4	x	x	-4	-1	x	-14	-4
SIRT5 block	x	-2	-3	x	3	-3	-3	-15
Cneo AK release	-1	x	-11	-3	1	-1	1	-7
ERp5 inh	x	1	0	x	0	66*	3	2

(9) COc1cc2c(cc1OC)C(=O)CC(C)S2 (stereo not given)
(10) Cc1[nH]c(=O)[nH]c(=O)c1Cc1cccc2ccccc12
(11) CN1[C@@H]2CC(OC(=O)[C@H](CO)c3ccccc3)C[C@H]1[C@@H]1O[C@@H]12 (stereo not given in full)
(12) O=C(Nc1ccc(Cl)cc1)c1cccc(S(=O)(=O)Nc2ccccn2)c1
(13) O=C(NC1CCCCC1)C(c1cccs1)N(C(=O)c1ccco1)c1ccc2c(c1)OCCO2 (stereo not given)
(14) O=C(C[C@@H]1C[C@@H]2c3cc(NC(=O)CC4CC4)ccc3O[C@@H]2[C@H](CO)O1)NCc1cccc(F)c1
(15) COc1cccc(Nc2nc(NCCO)nc(N3CCCC3)n2)c1
(16) O=C(Nc1ccccc1)N1CCCCN2[C@H](C1)[C@@H](c1ccc(C#CC3CC3)cc1)[C@@H]2CO
assay / entry	9	10	11	12	13	14	15	16
esBAF inh	-4	-17	0&-1&-6&-2	x	78*	-7	7	x
Statin myotox sup	x	1	5&-1&10&-3	x	x	-7	-6	x
miR122 inh	-8	-1	-1&-1&2&-1	51	1	0[16.7 µM]	x	-1[16.7 µM]
SIRT5 block	x	5	1&-3&-3&-2	-3	x	2	x	-1
Cneo AK release	0	x	-6&-1&0&-1	0	1	-11	2	3
ERp5 inh	x	-2	-2&0&3&5	-1	x	-79	1	0

Reformatted: 3 of the compounds above
9	COc1cc2c(cc1OC)C(=O)CC(C)S2 (stereo not given)
  esBAF inh = -4 | Statin myotox sup = x | miR122 inh = -8 | SIRT5 block = x | Cneo AK release = 0 | ERp5 inh = x
10	Cc1[nH]c(=O)[nH]c(=O)c1Cc1cccc2ccccc12
  esBAF inh = -17 | Statin myotox sup = 1 | miR122 inh = -1 | SIRT5 block = 5 | Cneo AK release = x | ERp5 inh = -2
11	CN1[C@@H]2CC(OC(=O)[C@H](CO)c3ccccc3)C[C@H]1[C@@H]1O[C@@H]12 (stereo not given in full)
  esBAF inh = 0&-1&-6&-2 | Statin myotox sup = 5&-1&10&-3 | miR122 inh = -1&-1&2&-1 | SIRT5 block = 1&-3&-3&-2 | Cneo AK release = -6&-1&0&-1 | ERp5 inh = -2&0&3&5

Quoted from the listing:
esBAF inh result of #10 reads -17
SIRT5 block result of #12 reads -3
Cneo AK release result of #9 reads 0
SIRT5 block result of #16 reads -1

(list continues)
(17) NC(=O)CNC(=O)c1cccc(Cl)c1
(18) CC(C)NC(=O)N1C[C@H]2[C@@H](c3ccccc31)[C@@H](CO)N2Cc1ccccn1
(19) OC(CN1CCc2ccccc2C1)c1ccccc1 (stereo not given)
(20) CCOC(=O)C1CCN(C(=O)CCCNC(=O)Cn2cnc3sc(C)c(C)c3c2=O)CC1
(21) CCOC(=O)c1cnc(-n2nc(C)cc2C)nc1NC(C)c1ccccc1 (stereo not given)
(22) Cc1ccc(S(=O)(=O)N(C)C[C@@H]2Oc3c(NC(=O)NC4CCCCC4)cccc3C(=O)N([C@H](C)CO)C[C@@H]2C)cc1
(23) CCc1ccccc1-n1c(SCC(=O)NC)nnc1-c1ccco1
(24) O=C(Nc1nnc(C2CC2)s1)C1Cc2ccccc2CN1S(=O)(=O)c1ccccc1F (stereo not given)
assay / entry	17	18	19	20	21	22	23	24
esBAF inh	-5	7	x	-5	-4	22	1	14
Statin myotox sup	10	19	x	-12	14	-18	-1	-6
miR122 inh	-3	-7[16.7 µM]	x	1	-26	7[16.7 µM]	0	-5
SIRT5 block	-4	x	-2	-6	x	8	-4	-1
Cneo AK release	0	-7	x	2	-1	39	2	x
ERp5 inh	-1	x	-6	0	x	0	-2	-1

Pulled by compound from the list above, 4 records:
(24) O=C(Nc1nnc(C2CC2)s1)C1Cc2ccccc2CN1S(=O)(=O)c1ccccc1F (stereo not given)
(19) OC(CN1CCc2ccccc2C1)c1ccccc1 (stereo not given)
(20) CCOC(=O)C1CCN(C(=O)CCCNC(=O)Cn2cnc3sc(C)c(C)c3c2=O)CC1
(22) Cc1ccc(S(=O)(=O)N(C)C[C@@H]2Oc3c(NC(=O)NC4CCCCC4)cccc3C(=O)N([C@H](C)CO)C[C@@H]2C)cc1
assay / entry	24	19	20	22
esBAF inh	14	x	-5	22
Statin myotox sup	-6	x	-12	-18
miR122 inh	-5	x	1	7[16.7 µM]
SIRT5 block	-1	-2	-6	8
Cneo AK release	x	x	2	39
ERp5 inh	-1	-6	0	0

Next compounds
(25) Cc1ccc(S(=O)(=O)CC(=O)c2cc3cccc(C)c3oc2=O)cc1
(26) COc1cnc(-c2ccccn2)nc1Sc1ccccc1
(27) O=C(NC1CCCC1)c1n[nH]c2ccccc12
(28) NC1C2CN(c3nc4c(cc3F)c(=O)c(C(=O)O)cn4-c3ccc(F)cc3F)CC12 (stereo not given)
(29) O=C(Nc1ccc2oc(=O)ccc2c1)c1cccnc1Cl
(30) COc1cccc(NCc2cc(=O)oc3cc(C)c(C(C)C)cc23)c1
(31) Cc1ccc(S(=O)(=O)c2c(C)cc(C)nc2Oc2cccc(C(F)(F)F)c2)cc1
(32) N/C(=N\OC(=O)c1ccco1)c1cccc(Br)c1
assay / entry	25	26	27	28	29	30	31	32
esBAF inh	1	10	53*	15	-1	10	11	8
Statin myotox sup	8	0	-1	10	-8	12	14	32
miR122 inh	9	0	22	-18	0	-8	5	41
SIRT5 block	-6	4	-1	x	x	-7	x	x
Cneo AK release	-2	x	-2	2	-2	-2	-1	0
ERp5 inh	-5	3	-3	x	x	2	x	x

(33) CC(C)Cn1c2ccccc2c2cc(C(=O)O)ccc21
(34) CC(C)NC(=O)Nc1cccc2c1O[C@H](CN(C)C(=O)Nc1ccc(C(F)(F)F)cc1)[C@H](C)CN([C@@H](C)CO)C2=O
(35) COc1cnc(-c2ccccn2)nc1Sc1cccc(Cl)c1
(36) C[C@@H]1CN([C@@H](C)CO)C(=O)c2cc(-c3cncnc3)cnc2O[C@@H]1CN(C)C(=O)c1ccccc1F
(37) CCN=C1SC(C(=O)Nc2cc(Cl)cc(Cl)c2)CC(=O)N1CC (stereo not given)
(38) Cc1nnc(SCC2=C(C(=O)O)N3C(=O)C(NC(=O)Cn4cnnn4)C3SC2)s1 (stereo not given)
(39) COc1ccc(S(=O)(=O)c2c(O)c3ccc(C(=O)Nc4ccc(F)cc4)cc3[nH]c2=O)cc1
(40) O=C(N[C@H]1CC[C@H](CCn2cc(-c3ccccc3)nn2)O[C@@H]1CO)c1cnccn1
assay / entry	33	34	35	36	37	38	39	40
esBAF inh	-10	-1	14	-2	-1	-4	-3	4
Statin myotox sup	3	-1	0	10	3	5	3	0
miR122 inh	-5	1[16.7 µM]	2	-5[16.7 µM]	-4	-2	-1	x
SIRT5 block	x	5	x	-4	-2	-1	5	1
Cneo AK release	-1	-2	11	1	0	-2	1	0
ERp5 inh	x	-5	x	-3	3	2	4	15

Two of the compounds above, with bars between the fields:
item | structure | esBAF inh | Statin myotox sup | miR122 inh | SIRT5 block | Cneo AK release | ERp5 inh
1 | Cc1nn(-c2ccccc2)c2[nH]c(=O)c(CNCCN3CCOCC3)cc12 | -6 | 5 | -4 | x | -1 | x
2 | O=C(Nc1nc2ccc(S(=O)(=O)N3CCCC3)cc2s1)c1ccccn1 | x | x | x | -2 | x | 1

Following part
(41) CCOC(=O)N1CCN(C(=O)c2cc(Cl)c(Cl)cc2C(=O)O)CC1
(42) COCCCNC(=S)NCCCNc1nc2cc3c(cc2cc1C#N)OCO3
(43) COc1ccc(-c2nnc(SCC(=O)NC3CC3)o2)cc1
(44) CCC(=O)N1C(C(=O)O)CSC1c1ccc(OC)cc1 (stereo not given)
(45) CN(c1ccccc1)S(=O)(=O)c1ccc(C(=O)OCC(=O)NC(N)=O)cc1
(46) COc1cc2c(cc1OC)C(=O)CCS2
(47) COc1cccc(NC(=O)c2ccc(NS(=O)(=O)c3cccs3)cc2)c1
(48) Cc1nnc(SCC(=O)NNC(=O)c2ccc(F)cc2)n1Cc1ccccc1
assay / entry	41	42	43	44	45	46	47	48
esBAF inh	x	-6	4	-2	-6	8	7	2
Statin myotox sup	x	0	15	3	7	125*	-42	10
miR122 inh	-5	8	-8	6	-6	-2	0	-6
SIRT5 block	-5	-16	-2	-2	0	x	0	x
Cneo AK release	x	1	-2	0	x	-2	2	-3
ERp5 inh	6	7	x	5	2	x	-9	-6

(49) CC(NS(=O)(=O)c1ccc([N+](=O)[O-])cc1)C(=O)NN (stereo not given)
(50) CC(C)(C)c1ccc(C(=O)NCCCn2ccnc2)cc1
(51) CCOCCCn1c(=S)[nH]c2cc(C(=O)NCc3ccc(F)cc3)ccc2c1=O
(52) O=C(NCc1cccc(F)c1)[C@@H]1[C@@H](CO)[C@@H]2Cn3c(cccc3=O)[C@H]1N2C(=O)c1cnccn1
(53) COc1ccccc1Sc1nc(-c2ccccn2)ncc1OC
assay / entry	49	50	51	52	53
esBAF inh	-4	-4	5	0	x
Statin myotox sup	4	-11	-13	1	x
miR122 inh	2	1	0	4[16.7 µM]	1
SIRT5 block	-1	-2	-9	5	-3
Cneo AK release	1	-2	2	-1	x
ERp5 inh	3	0	2	2	-2

Screening results as filed in PubChem.
